Rango release inh = inhibitors of RanGTP-induced Rango-importin beta complex dissociation. O95149+P62826. Biochemical FRET Rango-importin beta, RanGTP-induced dissociation. Potency, µM (top dose mostly 46.1 µM), for inactives: top-dose activity change, negative = inhibition. 0.071% of 340,000 active. AID 540253; active means falling FRET ratio curve, often poorly fitted, with flat reads before Ran was added; inconclusive means other falling curves, or compound fluorescence or quenching; inactive means flat or rising ratio curve;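 further: potency means the concentration at half of the fitted maximal effect; % of control where 0% means no effect; nearly all actives have a fitted effect of over 45% in size; -100% = wells without RanGTP and RCC1; the record marks most hits as doubtful in a second field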
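Rango/importin beta premix (0.1/0.25 uM final), PBS + 1 mM DTT + 0.02% Tween-20 + 0.1% BSA; cpd 5 min RT; FRET pre-read; + RanGTP-RCC1 (0.6 uM Ran, 2 mM GTP, 0.2 uM RCC1); 45 min RT; FRET post-read, ex 430, em 486/530 nm.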
GLA inh pH 4.5 = blocks human alpha-galactosidase A at pH 4.5; 230,000 tested, under 10 active; AID 1467; purified enzyme, 4-MU-alpha-Gal fluorescence, pH 4.5; activity change, negative = inhibition, % at 105 µM; P06280; inconclusive = small, poorly fitted or top-dose-only inhibition, or a rising curve; inactive = flat fitted curve, though single readings scatter; no compound was filed as active;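 further: 0% = full activity with enzyme and -100% = basal without enzyme; dose as in the result columns while the protocol names 77 µM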
Rango-impB inh = prevents formation of the Rango-importin beta complex; Q14974; Rango CFP/YFP FRET sensor + importin beta, 45 min; Potency, µM (top dose mostly 92.2 µM), without a hit: at the top dose inhibition of complex formation; 0.031% of 340,000 active; AID 540263; active = rising FRET ratio curve, often small or poorly fitted; inconclusive = mostly compound fluorescence or quenching in the first reads; inactive = flat curves in all reads;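 further: potency means the concentration at half of the fitted maximal effect; 0% = DMSO wells and 100% = buffer wells lacking importin beta; nearly all actives have a fitted effect of over 15% in size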
Target sequence (Q14974 whole entry, looked up): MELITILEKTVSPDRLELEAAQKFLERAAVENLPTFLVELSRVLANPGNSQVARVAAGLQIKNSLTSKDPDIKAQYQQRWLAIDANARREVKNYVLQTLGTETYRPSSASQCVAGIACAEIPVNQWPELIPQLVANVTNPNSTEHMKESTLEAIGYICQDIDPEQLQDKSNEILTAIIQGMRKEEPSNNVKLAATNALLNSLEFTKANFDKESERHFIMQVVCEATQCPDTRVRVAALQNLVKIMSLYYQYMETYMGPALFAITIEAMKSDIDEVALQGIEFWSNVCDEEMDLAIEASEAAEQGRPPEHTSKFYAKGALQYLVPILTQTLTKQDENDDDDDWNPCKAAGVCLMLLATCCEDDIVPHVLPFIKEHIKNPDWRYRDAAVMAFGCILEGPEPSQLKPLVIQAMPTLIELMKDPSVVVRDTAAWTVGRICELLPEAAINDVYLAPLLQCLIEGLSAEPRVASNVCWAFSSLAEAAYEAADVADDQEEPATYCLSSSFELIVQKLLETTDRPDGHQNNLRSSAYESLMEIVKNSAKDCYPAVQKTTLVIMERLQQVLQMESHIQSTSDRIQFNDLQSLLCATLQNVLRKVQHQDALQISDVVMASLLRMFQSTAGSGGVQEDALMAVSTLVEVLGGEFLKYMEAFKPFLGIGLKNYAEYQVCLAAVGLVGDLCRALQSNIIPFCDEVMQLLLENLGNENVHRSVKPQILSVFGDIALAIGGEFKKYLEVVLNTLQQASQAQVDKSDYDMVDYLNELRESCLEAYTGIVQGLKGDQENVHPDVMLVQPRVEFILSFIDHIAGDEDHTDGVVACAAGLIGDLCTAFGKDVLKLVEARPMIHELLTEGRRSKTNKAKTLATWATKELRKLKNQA
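Inhibition scored from the CFP 486 nm/YFP 530 nm FRET ratio 45 min after adding 0.125 microM importin beta to 50 nM Rango biosensor preincubated 5 min with compound (room temperature, PBS with DTT, Tween-20, BSA). No-importin wells as positive control.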
miR-21 reporter = raises the signal of a miR-21 reporter; HeLa miR-21 FLuc reporter, luciferase, 48 h; Potency, µM (doses to about 38.3 µM), without a hit: at the highest dose reporter change, positive = more light; 340,000 tested, under 10 active; active = well fitted rising curve with a large enough effect; inconclusive = small, poorly fitted or top-dose-only effect; inactive = no such curve, though single readings can be large or run the other way;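 further: % of control where 0% means no effect; miR-21 action dims this reporter so a rising signal means less miR-21 action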
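Luminescence from a firefly luciferase reporter carrying a miR-21 binding site downstream, stably expressed under a CMV promoter in HeLa cells that make miR-21 endogenously, reports miRNA modulation after 48 h compound exposure up to approximately 40uM final.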
The depositor's hits bear a star; ? = inconclusive; / = no result given.

Rango release inh,GLA inh pH 4.5,Rango-impB inh,miR-21 reporter,smiles
-14.9%,/,7.1%,-0.6%,Cc1ccccc1NC(=O)C1CCCN(S(=O)(=O)c2ccc(-n3cnnn3)cc2)C1 (stereo not given)
-3.8%,/,1.5%,/,CC(=O)c1cccc(OCC(=O)Nc2cccc(C(=O)Nc3c(C)n(C)n(-c4ccccc4)c3=O)c2)c1
-9.4%,/,-2.2%,2.9%,CN(CCc1cn[nH]c1)C(=O)C1CCC(=O)N(CC2CCCCC2)C1 (stereo not given)
-2.8%,-3.5,3.0%,0.5%,Cc1cc(C(=O)NCc2cc(C(=O)O)co2)co1
4.4%,3.9,2.4%,-1.0%,N#C/C(=N\Nc1ccccc1F)c1nc(-c2ccccc2)cs1
17.0%,-3.1,6.6%,-0.1%,CCOc1ccccc1-n1c(SCC(N)=O)nnc1-c1ccc(O)cc1
-16.6%,-6.0,-3.2%,-4.3%,Cc1cccc(Nc2nc(N)c([N+](=O)[O-])c(NCc3ccco3)n2)c1
1.6%,/,5.9%,/,Cc1c(C)n2c(SCC(=O)NCc3ccc4c(c3)OCO4)nnc2[nH]c1=O
-4.6%,4.1,0.4%,0.4%,CCCc1cc(-c2n[nH]c(=S)n2C(C)c2ccccc2)cs1 (stereo not given)
11.4%,3.5,1.7%,2.1%,CNC(=S)N/N=C/c1ccc(OCc2ccccc2)c(Br)c1
22.9%,/,-1.8%,16.9%,CN(C)S(=O)(=O)c1cccc(NC(=O)COc2ccc(C(=O)c3ccccc3)cc2)c1
-2.4%,-4.8,2.7%,11.0%,CCC(C)Nc1nc(C)nc2c1oc1ccccc12 (stereo not given)
-7.2%,-6.5,0.5%,-2.3%,COCCn1c(SCc2cc(=O)n3ccsc3n2)nnc1-c1ccncc1
-10.2%,2.2,-1.6%,9.7%,CC(C)(C)N1C(=O)c2ccccc2NC(=O)N1Cc1ccc(Br)cc1
-12.6%,/,-0.7%,?,Cc1cccc(-n2ncc(Cl)c(Cl)c2=O)c1
-16.9%,2.0,-1.1%,17.9%,COc1ccc(-c2[nH]c(-c3ccc(Cl)cc3)nc2SCC(=O)Nc2nccs2)cc1
23.2%,-5.0,2.9%,-6.1%,COc1ccccc1NC(=O)Cn1nnc(C(=O)NCCc2ccccc2)c1N
9.9%,-2.0,0.6%,-5.9%,CC(=O)N(c1cccc(Br)c1)C1C=CS(=O)(=O)C1 (stereo not given)
3.8%,2.2,0.5%,2.8%,CSc1nncc(=O)[nH]1
-7.1%,2.2,0.5%,-46.1%,Cc1cccc(Cc2nnc(CCC(=O)NCc3ccncc3C)o2)c1
13.1%,1.3,0.7%,-2.2%,Cc1cc(Oc2ccc([N+](=O)[O-])cc2)nc(N2CCOCC2)n1
3.2%,3.0,0.1%,-57.7%,C=CCn1c(C)cc(C(=O)COc2nncc3ccccc23)c1C
-3.8%,1.4,-3.4%,-29.5%,Fc1ccccc1COc1cccc(/C=N/n2cnnc2)c1
8.8%,6.7,-0.5%,1.8%,CC(=O)N/N=C(\C)CC(=O)Nc1ccc2c(c1)OCCO2
-15.8%,3.4,1.6%,-22.9%,OCC#Cc1cnc2ccccc2c1
-12.5%,6.8,-1.5%,-1.0%,COc1ccc(CNCC(=O)Nc2cccc(S(N)(=O)=O)c2)cc1
-4.3%,-2.9,-2.3%,-3.8%,O=C(CN1CCCCC1)Nc1cccc(-n2cnnn2)c1
-7.5%,0.7,-3.7%,-28.9%,CC(=O)C1=C(O)C(=O)N(CCCN2CCOCC2)C1c1ccccc1[N+](=O)[O-] (stereo not given)
12.1%,1.4,2.7%,0.5%,COCCOC(=O)C1=C(C)NC2=C(C(=O)CCC2)C1c1ccc(N(C)C)cc1 (stereo not given)
0.0%,-6.2,0.2%,-3.7%,CC(O)(CS(=O)(=O)Cc1ccccc1)C(=O)Nc1ccc(C(F)(F)F)cc1 (stereo not given)
?,4.4,?,13.6%,COc1cccc(-c2cc3nc(-c4ccccc4)cc(N4CCC5(CC4)OCCO5)n3n2)c1
?,/,?,-0.3%,CCOC(=O)c1sc(N2C(=O)C(O)=C(C(=O)c3ccco3)C2c2ccco2)nc1C (stereo not given)
0.3%,1.7,2.7%,-0.9%,O=C(NCCc1cccs1)c1ccc(Cl)cc1
-11.3%,/,-0.8%,6.6%,O=C(C1CC(=O)N(c2ccc(Cl)cc2)C1)N1CCN(Cc2ccc3c(c2)OCO3)CC1 (stereo not given)
-5.3%,/,1.3%,-0.2%,CCC(C)(C)NC(=O)C(c1cccc(OC)c1OC)N(CCOC)C(=O)CCC(=O)Nc1cc(C)on1 (stereo not given)
-3.0%,6.9,-3.6%,20.4%,C=CCn1c(SCC(=O)Nc2ccccc2OC)nnc1-c1ccccn1
6.9%,-0.6,2.5%,1.2%,CCc1ccc2c(c1)c(N=NC1=NC(=O)CS1)c(O)n2C
-18.0%,8.6,3.8%,9.2%,NC(=O)c1cccn(Cc2ccc(C(F)(F)F)cc2)c1=O
-2.8%,1.6,3.8%,2.2%,O=C(CSc1ncn[nH]1)Nc1cccc2ccccc12
-9.6%,-6.7,?,0.4%,CCOC(=O)/C(C#N)=N\Nc1cc(Cl)ccc1OC
0.6%,2.2,0.2%,-1.8%,C1=C(CCNCC2CC2)CCCC1
0.0%,/,-0.4%,/,CCn1c(-c2cc(Br)ccc2O)n[nH]c1=S
-3.6%,/,-2.5%,/,Cc1ccc(S(=O)(=O)NC(=O)N2CCCC2)cc1
-1.3%,1.5,3.3%,1.5%,COc1ccc(S(=O)(=O)NC(N)=NCCc2ccccc2OC)cc1
8.8%,5.6,-0.8%,-1.6%,c1ccc(OCCCc2nc(-c3ccncc3)no2)cc1
1.1%,2.6,4.0%,-21.1%,N#CCc1nc2ccccc2c(=O)[nH]1
13.9%,/,-3.3%,/,NC(=O)c1cc([N+](=O)[O-])ccc1NCc1cccc2ccccc12
15.2%,1.7,-3.5%,-1.1%,S=c1[nH]nc(Cc2noc3ccccc23)n1-c1ccccc1
1.4%,1.2,-0.4%,-11.8%,CC(C)CN1C(=O)c2ccc(NC(=O)c3ccccc3F)cc2C1=O
-11.5%,-15.6,0.1%,-3.7%,Cc1ccc(SCC(=O)OCn2nnc3ccccc3c2=O)cc1C
-0.5%,/,-2.9%,-2.2%,CN(CCc1ccccc1)C1CCCN(S(=O)(=O)CC(F)(F)F)C1 (stereo not given)
4.0%,-0.1,1.0%,-7.4%,S=C(Nc1cccc(Cl)c1)N1CCOCC1
10.3%,/,3.4%,-2.3%,Cc1cc(OC(C)C(=O)NC2CCN(Cc3ccccc3)CC2)c2c(C)cc(=O)oc2c1 (stereo not given)
17.9%,11.6,2.7%,-1.4%,OCCN1CCN(CCOc2ccccc2-c2ccccc2)CC1
-4.6%,-4.2,-1.8%,-1.1%,Cc1ccc(C(=O)N/C(=C/c2ccccc2)C(=O)NCC2CCCO2)cc1 (stereo not given)
-12.0%,/,4.9%,/,COc1ccc(NS(=O)(=O)c2ccc(C)c(C(=O)N(C)Cc3ccc(OC)cc3OC)c2)cc1
-1.7%,2.3,0.0%,-1.5%,O=C(Cn1nnc(-c2ccccc2NC(=O)c2ccco2)n1)NC1CCCCC1
-2.5%,4.3,3.0%,1.1%,CCOC(=O)C1=NNC2(CC(=O)N(c3cc(C)cc(C)c3)C2=O)C1 (stereo not given)
4.2%,-2.5,0.0%,-4.9%,Cc1ccc(C)c(NC(=O)COC(=O)c2cccc3c2C(=O)c2ccccc2C3=O)c1
-9.5%,/,?,-2.9%,C=CCc1ccc(OCCCNCc2ccccc2)c(OC)c1

(list continues)
Rango release inh,GLA inh pH 4.5,Rango-impB inh,miR-21 reporter,smiles
-1.5%,-12.7,2.5%,-9.1%,CN1CCN(c2ccc(Cl)cc2NC(=O)c2ccc(S(=O)(=O)N3CCCCCC3)cc2)CC1
17.4%,-0.8,?,2.1%,N#Cc1ccc(OCC(=O)N/N=C(\CCC(=O)O)c2cccs2)cc1
-6.3%,1.0,-4.8%,-10.7%,O=C(O)/C=C\C(=O)Nc1ccc(N2CCN(c3ccc(Cl)c(Cl)c3)CC2)cc1
-19.3%,/,-0.5%,-17.7%,Cc1cccc2sc(NS(=O)(=O)c3ccccc3)nc12
-1.7%,0.3,0.2%,2.0%,O=C(CSc1nnc(Cc2ccccc2)o1)NC1CC2CCC1C2 (stereo not given)
29.8%,0.9,-0.1%,-1.4%,O=C(CC1C(=O)NCCN1CC1CCCCC1)NCc1ccccc1Cl (stereo not given)
-6.2%,/,3.2%,0.9%,Cc1ccc(S(=O)(=O)NCC(c2ccccc2)N2CCN(c3ccc(F)cc3)CC2)cc1 (stereo not given)
1.2%,-11.8,-3.0%,7.0%,O=C(Nc1ccccc1)c1cccc(Cn2cc(C(F)(F)F)ccc2=O)c1
-13.7%,7.2,-3.2%,1.6%,O=C(Oc1ccccc1)c1cccc(N2C(=O)CCC2=O)c1
-0.8%,/,-2.6%,/,COc1ccc2c(c1)OC[C@H]1[C@H]2N2C(=O)c3cc(F)ccc3NC(=O)[C@@]2(C)[C@H]1c1ccccc1
-5.9%,-4.7,5.3%,-76.8%,CN(C)C(=O)c1ccc(-c2cc(C(F)(F)F)nn2C)s1
3.0%,/,1.8%,6.5%,O=S(=O)(c1ccc2ccccc2c1)N1CCc2ccccc21
-8.9%,-6.9,-2.3%,0.3%,Cc1ccc(/C=C/c2ccc(=O)n(Cc3ccc(Cl)cc3Cl)n2)cc1
-5.8%,3.4,0.5%,?,C=CCNC(=O)c1ccccc1NC(=O)C1COc2ccccc2O1 (stereo not given)
2.6%,-4.0,7.5%,0.2%,CCCC12CN3CC(C)(CN(C1)C31CCCCC1)C2=O
20.8%,/,-0.1%,/,C[C@@H](NC(=O)Cn1cnc2c(NCc3ccccc3)ncnc21)c1cccc2ccccc12
-4.0%,/,-5.4%,-3.4%,COc1ccc(NC(=O)CSc2nn3c(=O)c(C)nnc3s2)cc1
5.4%,3.1,-1.6%,-0.4%,CCCn1c(Cc2ccccc2)nnc1SCC(=O)N1CCOCC1
15.7%,/,-0.1%,0.1%,Cc1c(Cc2ccccc2)c(=O)oc2cc(OCC(=O)N3CCC(C(=O)O)CC3)ccc12
15.7%,-7.3,-3.2%,-12.6%,CN1CCN(C(=O)c2ccc(CSc3nc4ccncc4n3Cc3ccc(F)cc3)cc2)CC1

Entries of single compounds from above. Screens in order: Rango release inh	GLA inh pH 4.5	Rango-impB inh	miR-21 reporter
O=C(CSc1nnc(Cc2ccccc2)o1)NC1CC2CCC1C2 (stereo not given) is listed with -1.7%	0.3	0.2%	2.0%
CCCn1c(Cc2ccccc2)nnc1SCC(=O)N1CCOCC1 is listed with 5.4%	3.1	-1.6%	-0.4%

The list goes on:
Rango release inh,GLA inh pH 4.5,Rango-impB inh,miR-21 reporter,smiles
2.3%,/,?,-7.4%,O=C(O)COCC(=O)N1CCN(c2cc(C(F)(F)F)nc3ccccc23)CC1
0.7%,/,0.3%,/,CN(CC(=O)Nc1c(Cl)cccc1Cl)C(=O)CNC(=O)c1sc2ccccc2c1Cl
9.4%,/,2.6%,/,COc1ccccc1C=C1SC(=S)NC1=O
-2.3%,1.7,6.3%,0.2%,CC(C)c1ccc(NC(=O)c2cnn(-c3ccccc3)c2NC(=O)c2ccco2)cc1
7.4%,-1.3,-3.6%,-8.9%,CCOc1cc(/C=N/n2cnnc2)ccc1OS(=O)(=O)c1ccc(C)cc1
0.5%,-0.1,-2.5%,1.7%,COC(=O)c1cc2sc(Cl)cc2n1CC(=O)N1CCCc2ccccc21
?,/,?,/,CNc1c2cccc(C)c2nc2c(C(=O)NCCN(C)C)cccc12
-0.4%,-3.3,0.8%,-16.8%,Nc1nc(C2CCCCC2)cs1
10.8%,-1.7,-2.1%,0.7%,O=C(NCCc1nc2ccccc2[nH]1)c1ccc(Cl)c([N+](=O)[O-])c1
-15.9%,-11.5,?,16.4%,CC(C)(C)OC(=O)NCCCC[C@H](NC(=O)c1nc[nH]c1C(=O)N1CCc2ccccc2C1)C(=O)OC(C)(C)C
-7.3%,1.0,-0.9%,-0.4%,COc1ccc(S(=O)(=O)NCc2ccc3c(c2)OCO3)cc1C(=O)O
2.0%,/,0.8%,/,CCN(c1ccccc1)S(=O)(=O)c1ccc(Cl)c(NC(=O)CN(C)Cc2cccc(F)c2)c1
0.9%,-0.4,0.3%,-8.1%,CCc1ccccc1N=C1SCC(=O)N1C

An excerpt; the hit share may differ from the screen's.
